# D2 PAM: Beta-Arrestin HTS for Positive Allosteric Modulators of the Human D2 Dopamine Receptor: Potentiators. D(2) dopamine receptor (Homo sapiens), P14416. DiscoveRx D2 beta-arrestin cells, luminescence, 90 min; 100% = 57 uM dopamine signal. potentiation, % (test concentration not listed). 360,000 compounds, 0.23% hits; active = potentiation of 50% or more; inconclusive = 30% to 50%; inactive = 30% or less;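 also: compound concentration not given in the record; tested on top of an EC20 dose of dopamine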
#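 D2 cells co-treated with compound plus 50 nM dopamine (EC20) for 90 min at 37 deg C to detect potentiation. Beta-arrestin recruitment was read as enzyme-fragment luminescence after 1 h at ambient temperature. Full response was set by 57 uM dopamine.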
# CtBP-E1A inh: qHTS Assay for Inhibitors of the CtBP/E1A Interaction. 340,000 compounds, 0.49% hits. CtBP / adenovirus E1A interaction (AlphaScreen). activity change, % (no concentration beside the values). AlphaScreen GST-E1A/His-CtBP binding, 1536-well; stronger effect = lower value; control for the full effect not named in the record. AID 651724, 2012; in the data active means activity change below about -65%; inconclusive means about -30% to -65%; inactive means above about -30%; also: % is scaled to controls: 0 for no effect and ±100 for the full control effect
#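 GST-E1A and His-tagged CtBP (125 nM each as 5X stock) were preincubated with pin-transferred compound for 2 h at 37 °C in the dark, then glutathione donor and nickel acceptor beads were added for 1 h before AlphaScreen reading.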
# Six1-Eya2 inh: qHTS Assay for Inhibitors of the Six1/Eya2 Interaction | AlphaScreen GST-Six1/His-Eya2 binding, biochemical; stronger effect = lower value; control for the full effect not named in the record | 360,000 compounds, 0.56% hits | AID 651725, 2012 | activity change, % (concentration not given with the values) | Homeobox protein SIX1 (Homo sapiens) + Protein phosphatase EYA2 (Homo sapiens), …; in the data active = activity change below about -65%; inconclusive = about -30% to -65%; inactive = above about -30%; also: % is scaled to controls: 0 for no effect and ±100 for the full control effect
# Target sequence (O00167 whole entry, looked up): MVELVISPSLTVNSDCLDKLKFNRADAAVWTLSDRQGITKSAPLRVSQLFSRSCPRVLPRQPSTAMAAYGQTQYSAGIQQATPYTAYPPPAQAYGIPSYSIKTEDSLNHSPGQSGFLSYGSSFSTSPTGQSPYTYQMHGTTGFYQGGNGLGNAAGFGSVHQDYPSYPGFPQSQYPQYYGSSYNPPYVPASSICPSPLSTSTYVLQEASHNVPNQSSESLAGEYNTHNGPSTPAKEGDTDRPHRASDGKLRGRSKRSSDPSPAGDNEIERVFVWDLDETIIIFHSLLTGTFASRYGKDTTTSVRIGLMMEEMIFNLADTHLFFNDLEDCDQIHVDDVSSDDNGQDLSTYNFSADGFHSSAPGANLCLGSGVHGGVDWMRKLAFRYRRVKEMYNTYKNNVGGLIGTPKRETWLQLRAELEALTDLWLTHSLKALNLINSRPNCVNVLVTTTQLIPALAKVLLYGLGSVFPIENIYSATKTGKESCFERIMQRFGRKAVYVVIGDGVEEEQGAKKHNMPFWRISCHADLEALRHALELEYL
# Target sequence (Q15475 whole entry, looked up): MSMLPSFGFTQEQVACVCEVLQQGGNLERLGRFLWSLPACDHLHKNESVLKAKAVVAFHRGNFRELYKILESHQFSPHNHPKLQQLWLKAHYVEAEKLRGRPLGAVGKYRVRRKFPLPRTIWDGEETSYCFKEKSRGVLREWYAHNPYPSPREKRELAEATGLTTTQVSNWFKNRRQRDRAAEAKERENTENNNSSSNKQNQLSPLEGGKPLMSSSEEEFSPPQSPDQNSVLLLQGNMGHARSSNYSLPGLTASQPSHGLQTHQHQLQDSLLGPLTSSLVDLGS
#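 AlphaScreen luminescence read after one hour at 37 °C in darkness. Pin-transferred compounds met GST-Six1 and His-Eya2 protein (5X stock 250 nM/500 nM) plus glutathione donor and Ni-chelate acceptor beads (5X, 50 ug/mL).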
# Sfp inh: qHTS Assay for Inhibitors of Bacillus subtilis Sfp phosphopantetheinyl transferase (PPTase). 310,000 compounds, 3.5% hits. Biochemical Sfp PPTase activity, qHTS. 4'-phosphopantetheinyl transferase ffp (Bacillus subtilis), Q9F4F7. Potency, µM, for inactives: max response, negative = inhibition, most hits filed as inhibitors; active = well fitted inhibition curve with a large enough effect; inconclusive = small, poorly fitted or top-dose-only effect, or another doubt; inactive = no such curve, though single readings can be large or run the other way;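 also: the enzyme is Sfp with the accession as filed and its product quenches rhodamine fluorescence; potency is read from the fitted curve at half-maximal effect; 0% = enzyme reaction without inhibitor and -100% = no enzyme wells; top concentration of the series not given in the record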
#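 Fluorescence-quenching assay with 15 nM Sfp, 5 uM rhodamine-CoA and 12.5 uM BHQ-2-labelled ybbR peptide in pH 7.6 Hepes/MgCl2 buffer. Enzyme was pre-incubated with compound for 15 min at room temperature. Rate was taken from the 30-min fluorescence change (525/598 nm).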
# D2 ag: Beta-Arrestin HTS for Positive Allosteric Modulators of the Human D2 Dopamine Receptor: Agonists; D(2) dopamine receptor (Homo sapiens), P14416; DiscoveRx PathHunter D2 beta-arrestin, luminescence, 90 min; 100% = 57 uM dopamine signal; activation, % (test concentration not listed); 360,000 compounds, 0.084% hits; AID 624465, 2012; in the data active = activation above about 40%; inconclusive = about 15% to 40%; inactive = below about 15%; also: compound concentration not given in the record; the text of the record calls up to 30% inactive
#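 DiscoveRx PathHunter D2 beta-arrestin cells (2,100/well) attached overnight, then compound-stimulated 90 min at 37 C in HBSS/10 mM HEPES/0.1% Tween-20 buffer; beta-galactosidase complementation read by luminescence after 1 h at ambient temperature. Dopamine 57 uM final (EC100) as control.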
# TRPV1 potentiator: HTS Assay for Compounds that Act as Potentiators of the Vanilloid Receptor 1; TRPV1-expressing cells, Fluo-8 calcium influx, capsaicin EC20 potentiation; host cell line not named in the record; control for the full effect not named in the record; potentiation, % at 8.33 µM; 320,000 compounds, 0.02% hits; AID 540277, 2011; active means potentiation above 80%; inconclusive means 30% to 80%; inactive means below 30%; also: 0% is about no effect
#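 TRPV1-expressing cells were cultured overnight at 35.5C and loaded with Fluo-8 calcium dye for 40 to 90 min at room temperature. After a 10 s baseline, compound was added and calcium influx was read kinetically for 3 min (ex 480/em 520 nm).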
# PINK1 expr mod: A Quantitative High throughput Screen to Identify Chemical Modulators of PINK1 Expression; PINK1 immunofluorescence, high-content cytometry, 24 h; Potency, µM (top dose mostly 76.6 µM), without a hit: at the top dose activation (PINK1 increase), hits mostly activators; 410,000 compounds, 0.2% hits; active = well fitted activation curve with a large enough effect; inconclusive = small, poorly fitted or top-dose-only effect; inactive = flat fitted curve, though single readings scatter; cell line not stated here;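 also: potency is read from the fitted curve at half-maximal effect; % of control where 0% means no effect; nearly all actives have a fitted effect of over 65% in size; a mitochondrial uncoupler was the plate control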
#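 Cells are seeded, rested 12 hours, then given compound at five concentrations or DMSO for 24 hours. After fixation, blocking and antibody staining, PINK1 amount and mitochondrial localization are scored; CCCP serves as control.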
# * hit, by the source's call; ? = inconclusive; . = no result given; & = joins results of further samples; [ ] = dose if it differs, or a comment.
SMILES,D2 PAM,CtBP-E1A inh,Six1-Eya2 inh,Sfp inh,D2 ag,TRPV1 potentiator,PINK1 expr mod
CCOC(=O)c1cc(-c2ccccc2C)n(CC2CC(c3cccc([N+](=O)[O-])c3)=NO2)n1 (stereo not given),-2,-17,-16,.,-5.5,18,0.4%
CCOC(=O)c1c(-c2cccs2)csc1NC(=O)c1ccco1,-1,3,4,10%,-3.2,3,2.8%
CC(Nc1cccc([N+](=O)[O-])c1)C(=O)Nc1ccc(S(=O)(=O)N2CCCC2)cc1 (stereo not given),-10,-1,-7,.,-5.0,?,7.7%
CCc1ccccc1NC(=O)C1CCN(c2cnccn2)CC1,-2,1,-3,2%,-2.4,2,1.3%&-1.5%
O=C(O)c1cc2ccccc2[nH]1,-9,4,1,6%,1.7,.,-0.2%
Cc1ccc(NC(=O)Nc2cnccn2)cc1C,-5,1,-4,-3%,-6.3,-5,0.4%
Cc1ccc(-c2nnn(CC(=O)O)n2)cc1,-17,1,7,14%,-2.6,1,-0.3%
O=c1oc(-c2ccccc2)nc2sc3c(c12)CCC3,1,.,-4,-28%,-3.1,-4,1.5%
O=C(/C=C/c1ccccc1)NC(NC(=S)Nc1ccc(Cl)cc1Cl)C(Cl)(Cl)Cl (stereo not given),-3,-5,-2,7%,7.4,?,10µM*
O=C(Nc1ccc(C(=O)O)cc1)/C(=C/c1ccc([N+](=O)[O-])cc1)NC(=O)c1ccccc1,4,-2,-5,20%,13,2,-2.0%
c1ccc(-c2noc(CSc3nnnn3-c3ccccc3)n2)cc1,-2,9,20,12%,-5.4,.,1.1%
O=C(/C=C/c1ccccc1)NCCSCc1ccc(Cl)cc1,0,0,11,12%,0.4,1,2.9%
COc1ccc(Cl)cc1C(=O)NCCS(=O)(=O)N1CCN(c2ccccc2F)CC1,-14,0,-4,-4%,-2.4,-8,3.3%
CCOC(=O)CCSc1nc(-c2ccccc2)cc(C(F)(F)F)n1,-39,99,97,4%,-3.3,7,6.2%
COc1ccc2oc(C(=O)OCC(=O)Nc3ccccc3)c(C)c2c1,7,0,0,9%,-2.6,4,3.7%
CCCN(CC1CC1)C(=S)NC(=O)c1cc(Br)ccc1Cl,-13,0,9,.,-8.6,3,2.2%
CCC(=O)NCCNC(=O)c1c(SC)nsc1SC,-15,2,-3,10%,-1.5,-17,-1.3%
COc1ccc(NC(=O)CCCN2C(=O)C3CC=CCC3C2=O)cc1 (stereo not given),-2,18,-1,10%,-3.3,-9,-3.4%
O=C(OCC(=O)N1CCCc2ccccc21)c1ccc(Cl)nc1,7,-7,4,7%,-1.8,3,2.3%
Cc1ccc(NC(=O)CCC(=O)NNC(=O)c2ccccc2)c(C)c1,-1,5,11,29%,4.7,3,-3.7%
CC(C)CCn1c(CN2CCOCC2)nc2c1c(=O)n(C)c(=O)n2C,-4,5,3,2%,-3.4,?,3.8%
CCOC(=O)c1sc(C)c2c1NC1(CCCCCC1)NC2=O,22,9,6,12%,-1.9,-12,2.9%
O=C(NNC(=O)c1sccc1-n1cccc1)c1ccc(Cl)cc1,9,0,-3,1%,-1.7,12,-0.7%
COc1ccc(CNC(=O)c2cc(S(=O)(=O)N3CCCCC3)ccc2N2CCOCC2)cc1OC,7,3,1,.,-0.9,.,-1.6%
Cc1cccc(C#N)c1NC1=CC(=O)CC(C)(C)C1,-6,1,7,14%,-1.9,-5,0.4%

# Remaining list, next part:
SMILES,D2 PAM,CtBP-E1A inh,Six1-Eya2 inh,Sfp inh,D2 ag,TRPV1 potentiator,PINK1 expr mod
Cc1c(Cl)cnc(NC(=O)COC(=O)C2CC2)c1Cl,-4,2,-3,.,6.8,.,1.0%
O=c1[nH]nc(SCc2nc3ccccc3s2)n1C1CC1,-6,.,-1,-18%,-3.4,22,-0.1%
O=C(OCc1cc(Cl)cc2c1OCOC2)c1cccnc1Cl,-3,-4,3,.,-1.1,.,0.3%
COc1cccc(-c2cc(C(=O)N3C(C)CCCC3C)no2)c1 (stereo not given),4,51,21,?,-2.5,6,9.1%[38.3 µM]
Cc1cc(NC(=O)CSc2ncnc3c2cnn3-c2ccccc2)no1,4,4,8,?,-18,-14,1.4%
COC(=O)CN1C(=S)N(c2ccc(F)cc2)C(=O)C1CC(=O)Nc1ccccc1 (stereo not given),0,-11,-13,3%,-0.1,-9,-1.0%
Cc1ccc(-c2cc(C(=O)O)c3ccccc3n2)s1,-13,-16,10,10%,-3.1,-20,0.6%
O=[N+]([O-])c1ccc(O)c(/C=N/n2cnc3ccccc32)c1,-31,3,0,7%,-8.5,-2,?
C=CCOc1ccc(C(=O)O)cc1Cl,-2,-3,14,9%,-4.0,19,-1.3%
COc1cccc(CNC[C@H]2O[C@@H](n3ccc(N)nc3=O)[C@H](O)[C@@H]2O)c1OCc1ccc(F)cc1Cl,.,0,-1,.,-3.9,.,1.5%
COCCN1C[C@@H](CO)O[C@@H](n2cnc3c(N4CCN(C)CC4)ncnc32)C1,-11,4,1,.,-2.9,.,0.6%
O=C(OC12CC3CC(CC(C3)C1)C2)c1ccc(NCc2cc(O)ccc2O)cc1,6,-20,-14,.,?,.,-6.9%
CCC(=O)NC(=S)Nc1ccc(NC(=O)c2cc3ccccc3o2)c(OC)c1,-4,1,-1,-18%,0.0,1,6.1%
CCOC(=O)C1(Cc2cccc(OC)c2)CCN(Cc2cccc(OC)c2O)CC1,-37,-10,-17,6%,2.1,-22,4.3%
O=C(Nc1nc(-c2ccccn2)cs1)Nc1ccc(F)cc1F,-16,?,?,11µM*,-0.8,-11,17%
C/C(=N/NC(=O)c1ccncc1)c1ccccc1,-6,6,-7,1%,-4.2,8,-0.9%
CC(NC(=O)CCc1ccccc1)c1cc2c(cc1Cl)OCCO2 (stereo not given),-6,6,7,4%,1.2,2,1.5%
CCOC(=O)CCC(=O)c1c(C)oc2ccc(OC)cc12,0,12,14,17%,-2.5,-9,-2.3%
CC(C)(C)OC(=O)C[C@H]1C/C=C\C[C@@H](CC(=O)N(CCO)Cc2ccccc2)C(=O)N2CCC[C@H]2COC1=O,0,0,0,.,-0.8,.,0.2%
c1ccc(Cc2nn3c(COc4ccccc4)nnc3s2)cc1,-3,-5,2,14µM*,-2.3,-11,25%[38.3 µM]
c1csc(Cc2nc(-c3ccc(-n4cccc4)cc3)no2)c1,-9,0,-9,.,-4.5,.,8.6%
CC(C)C(C(=O)Nc1sc2c(c1C#N)CCCCC2)N1C(=O)c2ccccc2C1=O (stereo not given),-6,-18,-22,7%,0.0,-6,-1.6%
O=C(CN1C(=O)/C(=C/c2ccco2)SC1=S)NC1CCS(=O)(=O)C1 (stereo not given),-9,?,?,25µM*,3.1,0,0.7%
CCOc1ccc2c(c1)s/c(=N\S(=O)(=O)c1ccc(OC)cc1)n2C(F)F,5,6,0,-2%,-1.6,-9,1.4%
Cc1ccc(C2/C(=C(\O)c3c(C)nc4ccccn34)C(=O)C(=O)N2CCN(C)C)o1 (stereo not given),-21,-3,18,-5%,1.7,-5,-1.5%

# Five compounds from above, limited to Six1-Eya2 inh.
SMILES | Six1-Eya2 inh
CCOc1ccc2c(c1)s/c(=N\S(=O)(=O)c1ccc(OC)cc1)n2C(F)F | 0
C=CCOc1ccc(C(=O)O)cc1Cl | 14
C/C(=N/NC(=O)c1ccncc1)c1ccccc1 | -7
CCOC(=O)C1(Cc2cccc(OC)c2)CCN(Cc2cccc(OC)c2O)CC1 | -17
Cc1ccc(C2/C(=C(\O)c3c(C)nc4ccccn34)C(=O)C(=O)N2CCN(C)C)o1 (stereo not given) | 18

# Continuation:
SMILES,D2 PAM,CtBP-E1A inh,Six1-Eya2 inh,Sfp inh,D2 ag,TRPV1 potentiator,PINK1 expr mod
CCN(CC)CC(=O)n1c2c(c3ccccc31)CCCC2,-11,-10,-19,-2%,-3.9,-24,15%
CC[C@@H]1Cc2[nH]c(=O)[nH]c(=O)c2[C@H](c2ccc(Cl)cc2)O1,.,2,-1,.,.,.,1.5%
COc1ccc2c(c1)C(=O)OC2CC(=O)O (stereo not given),14,5,4,3%,7.5,-5,-0.1%
CN(CCc1ccccn1)C(=S)Nc1ccc(Cl)c(Cl)c1,-6,.,-1,2%,7.2,-10,1.6%
CCSc1nnc(NC(=O)CSc2nccn2-c2cc(C)cc(C)c2)s1,2,7,-2,2%,-1.8,-20,-0.4%
CC1CC(C)CN(C(=O)COC(=O)c2ccc[nH]c2=O)C1 (stereo not given),13,4,2,15%,-3.1,3,-2.0%
COc1ccc(Cl)cc1N(CC(=O)Nc1ccccc1C(=O)N1CCCC1)S(C)(=O)=O,-3,26,-2,8%,-3.6,3,2.4%
CSC(=NC#N)N1CCN(C(=NC#N)SC)CC1,4,-30,-4,-1%,3.0,16,-2.0%

# Compounds listed so far containing a nitro group on carbon (4):
SMILES,D2 PAM,CtBP-E1A inh,Six1-Eya2 inh,Sfp inh,D2 ag,TRPV1 potentiator,PINK1 expr mod
CCOC(=O)c1cc(-c2ccccc2C)n(CC2CC(c3cccc([N+](=O)[O-])c3)=NO2)n1 (stereo not given),-2,-17,-16,.,-5.5,18,0.4%
CC(Nc1cccc([N+](=O)[O-])c1)C(=O)Nc1ccc(S(=O)(=O)N2CCCC2)cc1 (stereo not given),-10,-1,-7,.,-5.0,?,7.7%
O=C(Nc1ccc(C(=O)O)cc1)/C(=C/c1ccc([N+](=O)[O-])cc1)NC(=O)c1ccccc1,4,-2,-5,20%,13,2,-2.0%
O=[N+]([O-])c1ccc(O)c(/C=N/n2cnc3ccccc32)c1,-31,3,0,7%,-8.5,-2,?
